HIV Env fusion – inhibitors of HIV-1 Env-driven cell-cell fusion, primary screen, HeLa-JRFL effector, CEM21 target cells, luciferase; inhibition, % at 12.3 µM; 360,000 compounds, 1.1% hits; AID 651610, 2012;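 active means mean replicate inhibition score of at least 50 and every replicate individually at or above 50; inconclusive means only one of the two criteria met; inactive means mean below 50 and not all replicates reaching 50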;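 further: 0% = plate neutral controls and 100% = maraviroc near 300 nM; one replicate is shown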
eIF4H FP inh – human eIF4H binding inhibitors, primary screen, translation initiation inhibitor project, biochemical, uHTS, fluorescence polarization | AID 2012, 2009 | Eukaryotic translation initiation factor 4H (Homo sapiens), Q15056 | inhibition, % at 35 µM | 290,000 compounds, 0.94% hits | eIF4H fluorescence polarization binding assay;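 active means 50% or more with normal probe brightness, or confirmed in later tests; inconclusive means above 50% with abnormal brightness, or retests that disagree; inactive means below 50% or failed in later tests; about a fifth of its hits are not listed in these tables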;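 further: calls also rest on retests at 20 µM and on dose response follow-up; 0% = protein and probe with vehicle and 100% = probe without protein; strong numbers were not always called active; many hits fall short of the cut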
PABP polyA inh – PABP poly(A) RNA binding inhibitors, primary screen, biochemical, fluorescence polarization, uHTS; Polyadenylate-binding protein 1 (Homo sapiens), P11940; inhibition, % at 35 µM; AID 2014, 2009; 290,000 compounds, 1% hits;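 active means 50% or more with normal probe brightness, or confirmed in later tests; inconclusive means above 50% with abnormal brightness, or retests that disagree; inactive means below 50% or failed in later tests; about a fifth of its hits are not listed in these tables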;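 further: calls also rest on retests at 20 µM and on dose response follow-up; controls were probe without protein and protein plus probe with vehicle; some compounds called inactive have numbers as strong as hits; many hits fall short of the cut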
Target sequence (P11940 whole entry, looked up): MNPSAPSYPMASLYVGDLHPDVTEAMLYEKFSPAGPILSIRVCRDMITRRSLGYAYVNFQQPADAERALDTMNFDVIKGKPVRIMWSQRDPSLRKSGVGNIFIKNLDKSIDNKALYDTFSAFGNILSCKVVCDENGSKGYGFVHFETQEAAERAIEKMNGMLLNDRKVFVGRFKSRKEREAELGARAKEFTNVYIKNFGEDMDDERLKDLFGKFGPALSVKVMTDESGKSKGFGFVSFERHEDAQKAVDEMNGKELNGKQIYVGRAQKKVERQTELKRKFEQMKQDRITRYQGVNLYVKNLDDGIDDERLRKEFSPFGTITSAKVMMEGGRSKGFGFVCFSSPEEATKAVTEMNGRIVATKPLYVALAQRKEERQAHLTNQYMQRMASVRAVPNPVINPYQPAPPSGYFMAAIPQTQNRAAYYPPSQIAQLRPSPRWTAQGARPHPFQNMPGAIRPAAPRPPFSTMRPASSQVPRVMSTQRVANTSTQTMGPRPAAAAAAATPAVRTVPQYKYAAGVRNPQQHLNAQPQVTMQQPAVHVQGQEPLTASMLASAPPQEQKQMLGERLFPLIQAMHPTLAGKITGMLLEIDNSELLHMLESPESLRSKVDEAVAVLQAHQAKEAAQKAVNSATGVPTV
Rce1 inh – yeast Rce1p protease inhibitors, primary screen, biochemical, fluorescence, cell-free homogeneous | yeast membranes, quenched prenylated peptide cleavage fluorescence | calls only | 290,000 compounds, 0.27% hits | AID 2563, 2010 | CAAX prenyl protease 2 (Saccharomyces cerevisiae (strain ATCC 204508 / S288c)), Q03530;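 active means fall in fluorescence gain of 50% or more versus controls, with final raw signal at or below 3038400; inconclusive means same 50% fall but final raw signal above 3038400; inactive means fall in fluorescence gain under 50%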;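 further: plate controls were neutral control wells for no effect and wells lacking membranes for full effect; tested at 10 µM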
Target sequence (Q03530 whole entry, looked up): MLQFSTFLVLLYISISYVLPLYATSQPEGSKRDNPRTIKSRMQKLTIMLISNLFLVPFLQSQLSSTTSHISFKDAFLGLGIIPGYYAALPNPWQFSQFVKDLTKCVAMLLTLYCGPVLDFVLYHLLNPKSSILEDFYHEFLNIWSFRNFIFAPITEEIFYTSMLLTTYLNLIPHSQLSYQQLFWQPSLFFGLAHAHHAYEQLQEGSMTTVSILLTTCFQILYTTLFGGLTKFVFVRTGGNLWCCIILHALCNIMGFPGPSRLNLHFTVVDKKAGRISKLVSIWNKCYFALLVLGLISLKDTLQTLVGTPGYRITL
UUG fidelity – modulators of yeast start codon fidelity, primary screen, whole organism, S. cerevisiae, single point, plate reader | S. cerevisiae UUG-firefly luciferase reporter, luminescence/redox ratio | activity score, % at 18.7 µM | 350,000 compounds, 0.13% hits | AID 602363, 2012;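 active means replicate mean at a twofold rise or more, about +100% in these data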;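 further: firefly luciferase made from a UUG start codon reports start codon fidelity; reporter light over untreated wells divided by growth signal over untreated wells; some hits fall short of that in this replicate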
CSC inhib – cancer stem cell viability inhibitors, primary screen, luminescence; cancer stem cell-like cells viability; inhibition, % at 7.5 µM; 300,000 compounds, 1.1% hits; AID 2717, 2010;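 active means mean at 75% or more and at least half the replicates too; inconclusive means mean and replicates disagree; tested in HMLE shEcad cells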;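 further: 0% = median of negative and 100% = median of positive control wells; the first replicate is given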
MT1-MMP act inh – blockers of MT1-MMP proenzyme processing, primary screen, HT1080 RFP-PRO-GFP cells, GFP/RFP fluorescence | GFP/RFP ratio fluorescence, overnight; percent of plate control window, DMSO zero | GFP/RFP ratio change, % at 20 µM | 360,000 compounds, 0.061% hits;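 active means GFP/RFP ratio change of at least 30% with cell ATP level not reduced by more than half and red fluorescence within 50% of control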; further: strong numbers were not always called active
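Assay system: HT1080 RFP-PRO-GFP cells. Benchmarks: DMSO vehicle wells and RFP-L50D-GFP reporter cell wells. Times: overnight cell settling, then overnight compound exposure, 37 °C, 5% CO2. Compound: 20 µM single dose, 1% DMSO. Read-out basis: GFP/RFP fluorescence ratio.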
MT1-MMP act inh RFP – further read-out of MT1-MMP act inh, marked with its call; RFP signal change, %; measured here: RFP expression control read;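 0 = vehicle wells; hits needed this value within 50% of zero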
An asterisk follows results filed as active; i = inactive; ? = inconclusive; . = no result given. This is a subset, so the mix of outcomes need not match the whole.

SMILES	HIV Env fusion	eIF4H FP inh	PABP polyA inh	Rce1 inh	UUG fidelity	CSC inhib	MT1-MMP act inh	MT1-MMP act inh RFP
COc1ccc(S(=O)(=O)N2CCCC2)cc1NC(=O)c1ccccc1	-2	-1	2	i	.	-8	1	1
COc1cccc(CC(=O)N2CCCC(CCC(=O)N3CCN(c4ccccn4)CC3)C2)c1 (configuration not stated)	15	-2	4	i	-9	-4	2	-4
COc1cc(/C=C2\SC(=O)N(c3ccccc3Cl)C2=O)cc([N+](=O)[O-])c1O	11	0	14	i	-12	.	31*	-10*
Cc1cc(C(=O)COC(=O)c2cccnc2Cl)c(C)n1C	.	.	.	.	-76	-20	-1	3
CC(=O)c1ccc(C)cc1OC(=O)c1cccc(F)c1	-10	-4	6	i	-5	3	0	5
CCO[C@@H]1OC(C(=O)N2CCOCC2)=C[C@H](c2ccc(C(F)(F)F)cc2)[C@H]1CCCO	11	-7	4	i	-5	-5	-4	-7
COc1cc2c(cc1OC)n(CC(=O)NC1CCCCCC1)n1c(C)cc(=O)nc21	0	-6	-4	i	-13	-5	5	0
COc1ccc(CN(CC2CCC(C(=O)O)CC2)C(=S)Nc2ccccc2C)cc1 (configuration not stated)	3	3	-47	i	-7	-1	-4	5
Cc1cc(NC(=O)Nc2c[nH]c(=O)[nH]c2=O)ccc1Br	9	1	2	i	-12	-3	1	4
Cc1cc(C)c2c(N)c(C(=O)N/N=C/c3cccnc3)sc2n1	-57	-5	8	i	-11	-6	12	-3
COc1cc(Cl)ccc1OCc1cc(C(=O)N2CCN(C)CC2)no1	-6	-8	-11	i	-3	4	-4	0
O=C(Nc1ccc(O)cc1)c1ccc(NC(=O)c2ccco2)cc1	-8	-13	9	i	-10	57	2	1
Cc1oc(-c2cccs2)nc1CN1CCC(C(=O)N2CCCC2)CC1	-7	6	-4	i	.	-12	2	2
O=C1CCC(=O)N1c1ccccc1	-2	4	-10	i	-12	0	-1	0
COCCN(C(=O)COC(=O)Cc1ccc(Cl)cc1)c1c(N)n(Cc2ccccc2)c(=O)[nH]c1=O	11	.	.	.	-30	.	0	-4
Cc1ccc(NC(=O)CC2(CC(=O)O)CCCC2)c(C)c1	0	2	3	i	-19	.	-1	2
COCCn1cnc2c1c(=O)n(CC#N)c(=O)n2Cc1ccccc1	-2	-7	-10	i	-16	-12	1	3
COCCn1c(=O)[nH]c2cc(C(=O)Nc3cccc(F)c3)ccc2c1=O	-10	-2	10	i	-26	-10	11	10
CCCCN(C(=O)COC(=O)C1(c2ccccc2)CC1)c1c(N)n(CCC)c(=O)[nH]c1=O	-135	.	.	.	-8	.	2	6
CCOc1ccc(CN2CCNC(=O)C2CC(=O)NCc2cc(C)n(C)n2)cc1 (configuration not stated)	-4	8	8	i	-7	3	1	-3
Cc1ccc(Nc2nc(-c3sc(NC(=O)c4cccc(Cl)c4)nc3C)cs2)cc1	.	-3	-4	i	.	16	.	.
O=C(Nc1nccs1)c1cccc2ccccc12	14	-7	3	i	-17	0	0	4
COc1cc(N)c(Cl)cc1Cl	-25	18	8	i	.	-14	1	1
CCOC(=O)CN(C(=O)COc1nc(-c2ccccc2)cc(C)c1C#N)c1ccc(F)cc1	-4	0	10	i	.	-3	2	-1
CCCOc1ccc(C(=O)NCC(c2cccs2)N(C)C)cc1OC (configuration not stated)	-2	-6	-7	i	.	6	-2	-3
O=S1(=O)N=C(N(CCO)/N=C/c2ccc(Br)cc2)c2ccccc21	-3	-10	-1	i	-9	-7	-4	-6
O=C(NCc1cn2ccsc2n1)c1cccs1	1	-3	-1	i	-2	4	-1	2
COc1cc(/C=N/Nc2ccccc2)ccc1O	-2	-7	5	i	1	41	-1	5
CC(=O)NNC(=S)Nc1cccc(F)c1	-3	-3	1	i	-10	1	2	1
COCCNC(=S)N1CCC(Cc2ccccc2)CC1	5	-11	-4	i	.	-1	0	0
COC(=O)c1[nH]c2cc(OC)ccc2c1NC(=O)CN1CCC(C(N)=O)(N2CCCCC2)CC1	.	0	-5	i	11	-15	5	7
FC(F)(F)c1ccc2c(c1)N1CCCC1CN2 (configuration not stated)	-14	18	8	i	-19	3	21	32
CN(C)S(=O)(=O)c1cccc(NC(=O)CC23CC4CC(CC(C4)C2)C3)c1	?	-13	0	i	17	3	-1	0
COc1cccc(CN2CCN(Cc3cccc4nonc34)CC2CCO)c1 (configuration not stated)	-1	8	-6	i	-14	0	2	-3
CCc1cccc(C)c1NC(=O)CN1C(=O)NC(Cc2ccccc2)C1=O (configuration not stated)	3	-10	4	i	.	-4	-1	1
COc1ccc(C(c2c(NC(C)=O)sc3c2CCCC3)N2CCN(CCO)CC2)cc1OC (configuration not stated)	-11	-11	15	i	-8	-11	1	5
CC(C)(C)c1cc(NC(=O)C2(C)CCN2C(=O)C2(c3ccccc3)CC2)no1 (configuration not stated)	1	.	.	.	7	.	-2	4
O=C(NCC(=O)N(c1ccc(Cl)cc1)C(C(=O)NC1CCCC1)c1cccnc1)c1ccco1 (configuration not stated)	4	1	6	i	-17	-11	-3	-1
O=C(O)c1ccc(S(=O)(=O)Nc2ccc3c(c2)OCCO3)cc1	-9	-8	-3	i	-11	14	0	-1
COc1ccc(C(=O)CC(=O)C(=O)Nc2ccccc2OC)cc1	1	14	-11	i	-11	-3	-2	4
CCCCCCOc1ccc(N2C(=O)CC(NCc3ccc(S(N)(=O)=O)cc3)C2=O)cc1 (configuration not stated)	-15	3	-11	i	-11	-13	5	1
COC(=O)CSc1nnc(-c2sc3cc(OC)ccc3c2Cl)n1C	.	-6	-6	i	-17	10	2	0
Cc1ccc(S(=O)(=O)N(Cc2cccc(F)c2)C(=O)N2CCN(C)CC2)cc1	1	.	.	i	-12	.	1	2
COc1ccccc1N1CCN(CC(O)COc2ccc(C)cc2C)CC1 (configuration not stated)	25	-8	-5	i	-2	0	1	2
O=C(Nc1cccnc1)C1CC(c2ccccc2O)=NO1 (configuration not stated)	.	0	5	i	-21	-2	-3	0
O=C1NC(=O)/C(=C/c2cccc([N+](=O)[O-])c2)N1	13	4	5	i	-14	-8	3	-1
Cc1nnc(-c2ccc(Cl)cc2)[nH]c1=O	-3	-8	-1	i	.	.	12	8
Fc1ccc(NC(=S)Nc2ccc(Cl)cc2Cl)cc1	7	1	1	.	.	3	.	.
NC(=O)c1ccc(NC(=O)COC(=O)c2ccccc2SCC(=O)N2CCCC2)cc1	-28	.	.	.	1	.	0	4
O=C(C1CC(c2ccc(F)cc2)=NO1)N1CCN(Cc2ccccc2)CC1 (configuration not stated)	7	-2	-2	i	-1	-8	1	3

The listing continues.
SMILES	HIV Env fusion	eIF4H FP inh	PABP polyA inh	Rce1 inh	UUG fidelity	CSC inhib	MT1-MMP act inh	MT1-MMP act inh RFP
NC(=O)c1ccc(NC(=O)COC(=O)c2cccc(Oc3ccccc3)c2)cc1	1	-3	0	i	-7	-5	4	5
COc1ccc(Nc2nc(Nc3ccc(OC)cc3OC)nc(N3CCN(C)CC3)n2)c(OC)c1	-12	-6	1	i	-14	3	-7	-3
NC(Cc1ccc(C(F)(F)F)cc1)c1csc(Nc2ncccn2)n1 (configuration not stated)	-82	.	.	.	-21	.	5	3
COc1ccc(-c2nnn(CC(=O)N3CCN(c4ccc(F)cc4)CC3)n2)cc1	20	-9	12	i	-21	.	3	6
Cc1sc2nc(CN3CCCCC3)nc(N3CCN(C(=O)c4ccco4)CC3)c2c1C	-2	-5	4	i	5	1	-10	-2
CC[C@@H](C)C(N)c1cn([C@@H](CCC(=O)O)C(=O)N2CCNCC2)nn1 (some centres not stated)	14	6	11	i	-11	-1	-1	4
COc1ccc(Nc2nc(NCC3CCCO3)c3ccccc3n2)c(OC)c1 (configuration not stated)	-28	-7	-3	i	5	-14	-20	-14
O=C(O)CC(NS(=O)(=O)Cc1ccccc1)c1cccc([N+](=O)[O-])c1 (configuration not stated)	9	-8	-3	i	-8	3	-5	0
Cn1c(SCc2ccccn2)nnc1-c1ccccc1	1	6	7	i	.	0	-2	2
COc1ccc(NC(=S)NCCc2c[nH]c3ccccc23)c(OC)c1	4	4	2	.	-31	.	-1	-2
N#CC1=C(S)N(c2ccccc2)C(c2cccs2)NC1=O (configuration not stated)	.	4	3	i	-34	5	-2	2
O=C(CNC(=O)c1nn(Cc2ccccc2)c(=O)c2ccccc12)Nc1ccc(F)c(F)c1F	1	.	.	.	-17	-4	2	-1
O=C(CSc1nc(CCC2CCCC2)nc2ccccc12)NCc1ccc2c(c1)OCO2	40	-2	-4	i	-22	17	-4	-1
O=C(CCCN1C(=O)c2ccccc2C1=O)NCCc1ccc(OC(F)F)cc1	-4	5	4	i	-10	-7	-2	2
NC(=O)CSc1nnc(CNc2ccc(F)cc2)n1CC1CCCO1 (configuration not stated)	-16	5	2	i	.	5	1	1
NC(=O)c1nnsc1-c1ccc(-c2snnc2C(N)=O)cc1	-6	5	15	i	.	-2	3	2
CN(C)c1ccc(NC(=O)c2sc(SCC(=O)Nc3ccc(Br)cc3)nc2N)cc1	.	4	-5	i	-13	3	-7	-2
Cc1cccc(NCc2cc(Cl)cc(Cl)c2O)n1	.	5	5	i	-4	23	-6	0
CSc1ccc(S(=O)(=O)Nc2ccc(S(=O)(=O)Nc3ccc(C)cc3)cc2)cc1	6	-6	1	i	-5	11	7	-2
Cc1ccc(-c2cc(C(=O)N3CCN(c4ccccc4O)CC3)c3ccccc3n2)o1	-38	2	0	i	-13	6	3	6
O=C(CNS(=O)(=O)c1ccc(Br)s1)N1CCN(C(=O)c2ccco2)CC1	.	-3	4	i	-13	10	3	-2
CCOC(=O)c1sc2nc3c(SCCC#N)cc(C(=O)c4cc(F)ccc4O)cn3c(=O)c2c1C	35	27	-10	i	-21	.	4	5
CCCCOCCCNc1ncnc2c1[nH]c1ccccc12	88*	-6	-6	i	-17	26	8	-19
Cc1ccc(NC(=O)CC2SC(=NCC3CCCO3)NC2=O)cc1Cl (configuration not stated)	.	-3	-3	i	.	-3	2	0
COCCCNC(=O)Cn1c(=O)n(Cc2ccc(C(=O)NCCc3ccc(OC)c(OC)c3)cc2)c(=O)c2ccccc21	3	36	5	i	-2	-8	3	1

Arranged by SMILES length (low to high): some entries from above.
SMILES	HIV Env fusion	eIF4H FP inh	PABP polyA inh	Rce1 inh	UUG fidelity	CSC inhib	MT1-MMP act inh	MT1-MMP act inh RFP
O=C(CNS(=O)(=O)c1ccc(Br)s1)N1CCN(C(=O)c2ccco2)CC1	.	-3	4	i	-13	10	3	-2
Cc1ccc(-c2cc(C(=O)N3CCN(c4ccccc4O)CC3)c3ccccc3n2)o1	-38	2	0	i	-13	6	3	6
CSc1ccc(S(=O)(=O)Nc2ccc(S(=O)(=O)Nc3ccc(C)cc3)cc2)cc1	6	-6	1	i	-5	11	7	-2
CCOC(=O)c1sc2nc3c(SCCC#N)cc(C(=O)c4cc(F)ccc4O)cn3c(=O)c2c1C	35	27	-10	i	-21	.	4	5

Compound activity: PubChem BioAssay, several laboratories
